# Screens from PubChem.
# RanGTP-Imp inh: inhibitors of RanGTP-importin-beta interaction, primary screen, biochemical, FRET, CFP-Ran, YFP-importin-beta, homogeneous; cell-free CFP-Ran/YFP-importin-beta FRET ratio; inhibition, % (test concentration not listed); 300,000 compounds, 1.1% hits; AID 2216;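 active = most replicates above 15%; inconclusive = exactly half above 15%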;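 note: 0% = DMSO wells and 100% = Ran loaded with GDP instead of GTP; wells of about 40 µL received 100 nL stock; the first replicate is given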
# B2AR ag: human beta-2 adrenergic receptor agonism by FAP; AID 504454; 340,000 compounds, 0.43% hits; Am2.2-beta2AR cells, FAP receptor internalization, flow cytometry; reference of the scale not given here; P07550; response, % (no concentration beside the values);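 active = response above a set limit, near 3 SD of response in nonfluorescent compounds, cut at about 42% in these data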;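 note: stock transfer was 100 nL into about 11 µL; a reference agonist was the positive control; negative values mostly stem from fluorescent compounds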
# Calb FLC: C. albicans growth modulation with fluconazole. C. albicans CaCi-2 (fluconazole-resistant clinical isolate) + fluconazole, Alamar Blue growth, 48 h. growth inhibition, % (concentration not given with the values). 300,000 compounds, 0.57% hits. AID 1979;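 active = most replicates above 75%; inconclusive = exactly half above 75%; inactive = most below 75%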;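 note: all wells also contain fluconazole at 8 µg/ml as a sub-toxic cotreatment; 0% = median of DMSO wells and 100% = median of geldanamycin control wells; wells of about 8 µL received 7.5 nL stock; the first replicate is given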
# ALR inh: inhibitors of human sulfhydryl oxidase ALR; 290,000 compounds, 3.8% hits; purified ALR, DTT oxidation, H2O2 HRP-luminol luminescence; AID 485317; inhibition, % (no concentration beside the values);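 active = mean and each replicate at 75% or more; inconclusive = only one of the two met; inactive = neither met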;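 note: stock transfer was 7.5 nL into about 7.5 µL; 0% = neutral wells and 100% = wells with inactivated enzyme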
# Vif A3G: inhibitors of Vif binding to APOBEC3G peptide, primary screen, biochemical, TR-FRET, GST-Vif 1-94, biotin-A3G peptide, dose response retest (AID 1117319); TR-FRET GST-Vif / biotin-A3G peptide binding; higher % means a stronger effect; test concentration not given here; strong numbers were not always called active; one-dose inhibition, %; IC50 in µM for titrated hits; 260,000 compounds, 0.57% hits;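 active = above the screen mean plus three standard deviations and confirmed in dose response; inconclusive = results disagree or hit not tested in dose response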;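 note: Vif residues 1-94 fused to GST binding biotinylated APOBEC3G peptide 110-148; 0% = full assay without inhibitor and 100% = GST in place of GST-Vif; retest series ran down from 100 µM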
# HNF4A DNA FP: change in binding of human HNF4 alpha to DNA | activity change, % at 10 µM | AID 1224865 | 360,000 compounds, 0.3% hits | P41235 | HNF4a-FITC DNA binding, fluorescence polarization, 1 h; in the data active = activity change above about 30%, passing the limit was not always enough;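 note: controls were the assay level and a saturating level of protein; the project sought stronger binding though the title names inhibitors; some compounds called inactive have numbers as strong as hits; positive values seem to mean higher polarization but the record does not say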
# LANA-H2B inh: blocks KSHV LANA binding to histone H2A/H2B; 320,000 compounds, 0.6% hits; cell-free LANA-H2A/H2B peptide, fluorescence polarization; Q9QR71; inhibition, % (test concentration not listed); in the data active = inhibition mostly above about 10%, no sharp cut-off; inactive = mostly below about 6.7%;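 note: stock transfer was 7.5 nL into about 10 µL; 0% = median of vehicle wells and 100% = median of positive control wells; one replicate is shown; the record names a cut of 25% in any replicate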
# Target sequence (Q9QR71 whole entry, looked up): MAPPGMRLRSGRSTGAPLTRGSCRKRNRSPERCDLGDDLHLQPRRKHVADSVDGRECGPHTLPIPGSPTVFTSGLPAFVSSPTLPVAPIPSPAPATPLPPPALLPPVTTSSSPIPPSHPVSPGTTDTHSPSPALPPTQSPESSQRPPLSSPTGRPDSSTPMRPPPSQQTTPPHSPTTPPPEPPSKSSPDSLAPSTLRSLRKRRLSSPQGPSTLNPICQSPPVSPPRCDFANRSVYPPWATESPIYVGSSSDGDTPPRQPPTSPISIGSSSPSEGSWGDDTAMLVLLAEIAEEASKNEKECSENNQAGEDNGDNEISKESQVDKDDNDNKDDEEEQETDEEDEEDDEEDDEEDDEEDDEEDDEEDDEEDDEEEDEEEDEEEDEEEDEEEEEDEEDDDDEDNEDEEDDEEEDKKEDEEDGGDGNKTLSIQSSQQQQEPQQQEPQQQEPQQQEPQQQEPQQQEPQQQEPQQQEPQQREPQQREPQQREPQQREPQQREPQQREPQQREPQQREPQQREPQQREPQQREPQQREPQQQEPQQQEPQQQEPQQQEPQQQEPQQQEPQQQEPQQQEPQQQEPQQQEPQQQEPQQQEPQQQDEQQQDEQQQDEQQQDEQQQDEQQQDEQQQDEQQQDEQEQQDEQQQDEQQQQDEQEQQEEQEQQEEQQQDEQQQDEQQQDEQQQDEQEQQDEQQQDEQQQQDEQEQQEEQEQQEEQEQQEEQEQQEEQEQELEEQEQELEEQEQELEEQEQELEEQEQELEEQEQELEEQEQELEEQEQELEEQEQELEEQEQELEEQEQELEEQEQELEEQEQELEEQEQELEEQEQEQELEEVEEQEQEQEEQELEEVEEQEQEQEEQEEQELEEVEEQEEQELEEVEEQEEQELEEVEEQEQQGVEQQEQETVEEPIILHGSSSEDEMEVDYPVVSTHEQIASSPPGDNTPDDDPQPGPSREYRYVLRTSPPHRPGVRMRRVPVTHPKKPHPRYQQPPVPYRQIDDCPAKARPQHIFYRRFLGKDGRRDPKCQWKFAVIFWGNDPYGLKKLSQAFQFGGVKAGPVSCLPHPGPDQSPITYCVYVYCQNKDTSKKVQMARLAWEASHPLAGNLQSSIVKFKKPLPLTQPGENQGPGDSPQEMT
# An asterisk follows results filed as active; ? = inconclusive; · = not tested or not shown; & = joins results of further samples.
SMILES,RanGTP-Imp inh,B2AR ag,Calb FLC,ALR inh,Vif A3G,HNF4A DNA FP,LANA-H2B inh
O=C(Nc1ccc(N2CCCC2)cc1)c1ccc(Cl)cc1Cl,-0.5,0,3,·,-15%,3.4,8.0
Fc1cccc(/C=N/Nc2cc(N3CCOCC3)ncn2)c1,-0.1,-1,-9,·,·,-0.4,-0.3
O=C(Nc1nnc(Cc2c[nH]c3ccccc23)s1)c1ccc(Cl)cc1Cl,?,15,2,-6,14%,16,3.6
Cc1cccc2cc(CN(Cc3ccco3)C(=O)Nc3cccc(C#N)c3)c(Cl)nc12,-3.4,1,6,-6,-5%,-4.8,4.2
Cc1cccc(NC(=O)CSc2nnc(C3CC3)n2CC2CCCO2)c1C (centres undefined),-0.8,-3,7,·,-1%,-0.3,-8.0
COc1ccc(S(=O)(=O)N(CC(=O)NCc2ccco2)C2CCCCC2)cc1OC,-0.6,-10,8,1,24%,-0.8,0.8
CC(C)OC(=O)c1c(NC(=O)c2ccco2)sc2c1CCCC2,5.2,10,0,1,-4%,0.9,-0.4
Cc1csc(NC(=O)CSc2nnc(-c3ccco3)n2C)n1,-2.2,-14,4,·,?,-4.5,2.3
Cc1oc(-c2ccccc2F)nc1CS(=O)(=O)CC(=O)NCCN(C)C1CCCCC1,3.2,12,-1,-37,-2%,0.4,1.1
CCOC(=O)C(C(C)C)C(N)Cc1ccc(F)cc1 (centres undefined),?,0,-49,-9,1%,5.9,-1.0
Cn1c(N)c(C(=O)COC(=O)C2(c3ccc(F)cc3)CCCC2)c(=O)n(C)c1=O,22*,4,-1,-3,-8%,1.8,-2.7
COc1ccc(-c2noc(CN(C(=O)c3ccc(OC(C)=O)cc3)C(C)C)n2)cc1OC,0.2,-4,0,-2,9%,2.0,-2.3
O=C(O)CCCCCNS(=O)(=O)c1ccc(Cl)cc1,-0.4,-4,-9,-1,0%,-1.0,6.2
O=C(CSc1nc2ccccc2c(=O)n1Cc1ccco1)c1ccc(F)cc1,7.0,-5,-11,23,-2%,-0.2,-2.0
Cc1ncc(CCl)c2c1OC(C)(C)OC2,-2.9,-5,4,-2,?,1.3,-2.2
CCCN=Cc1c(CCC)[nH]n(-c2nc3ccccc3s2)c1=O,4.7,-10,-6,-50,-2%,-3.7,3.9
O=C(NC1(C(F)(F)F)C(=O)Nc2c1c(=O)[nH]c(=O)n2Cc1ccccc1)c1ccc(Cl)cc1 (centres undefined),0.2,2,1,·,0%,1.1,7.7
CCCCn1c(-c2cccnc2)nc2cc3[nH]c(=O)c(C(C)C)nc3cc21,1.3,10,-3,-47,·,14,0.9
CCOc1ccc(OCCNC(=O)C(NC(=O)c2c(F)cccc2F)C(C)C)cc1 (centres undefined),·,0,·,-4,-7%,0.4,-2.6
Cc1cccc2nc(COc3ccc(Cl)c4cccnc34)cn12,-0.2,-1,11,-21,5%,1.6,0.1
COc1cccc(CNC(=O)CSc2nnc3c(n2)[nH]c2ccc(C)cc23)c1,-2.2,5,23,-14,·,-3.1,5.4
Cn1ccnc1SCC(=O)Nc1cccc(S(=O)(=O)N2CCCCC2)c1,-1.0,4,-7,-11,6%,3.3,-0.5
CS(=O)(=O)N(CC(=O)Nc1ccccc1Sc1ccccc1)c1cccc(Br)c1,3.1,-4,-2,-4,2%&-4%,-0.7,-2.6
COc1ccc(CC(=O)NNC(=O)COc2ccc(Cl)cc2C)cc1S(=O)(=O)N1CCOCC1,·,2,·,-4,1%,0.1,1.1
Cc1cc(C(=O)N/N=C2\CC(=O)CC(C)(C)C2)c(C)n1-c1ccc(F)cc1,-1.0,2,-5,-13,13%,1.3,-4.5
O=C(Nn1c(-c2ccncc2)nc2ccccc2c1=O)c1ccc(Br)cc1,0.8,5,-21,-5,·,-0.1,-4.5
O=C(CCCN1C(=O)/C(=C/c2cccs2)SC1=S)Nc1cc([N+](=O)[O-])ccc1O,?,4,-7,-5,0%,-2.6,4.9
CC1CCN(c2nc3c(c(=O)[nH]c(=O)n3C)n2CCSc2nc3ccccc3o2)CC1,-2.5,·,4,·,4%,·,·
CC(c1cccs1)N(Cc1ccco1)C(=S)Nc1ccc(F)c(Cl)c1 (centres undefined),2.3,1,-4,-4,25%,3.7,0.0
O=C(NCCC1CCCCN1S(=O)(=O)c1ccccc1)C(=O)NCc1ccccc1F (centres undefined),-2.2,10,14,-2,-1%,3.2,-4.6
CCn1cc(C(=O)N2CC(C)CC(C)C2)c(=O)c2cc(S(=O)(=O)N(C)C)ccc21 (centres undefined),-3.3,5,5,-7,-4%,2.8,-7.9
CCc1ccc(NC(=O)CSc2nc3[nH]ncc3c(=O)[nH]2)cc1,2.6,-1,14,1,-6%,-0.3,-5.5
O=S(=O)(Nc1ccc(O)c(Sc2nc3ccccc3s2)c1)c1ccc(Cl)cc1,-3.5,5,?,3,1%,1.5,-3.8
Cc1cc(C)c(CN2CCC(n3nccc3NC(=O)C3CCOC3)CC2)cc1C (centres undefined),1.6,13,-9,-5,·,-1.4,-3.4
O=C(N(Cc1ccccc1)c1ccccn1)C12CC3CC(CC(C3)C1)C2,-3.5,-3,-8,-34,0%,3.5,-0.5
O=C(CSc1nnnn1-c1ccc2c(c1)OCCO2)c1cccc2c1OCCO2,?,-1,-3,-13,-8%,-0.8,4.4
CCC(=O)c1cn(CC(=O)O)c2ccccc12,-1.7,-9,26,-2,1%,-2.8,1.7
CCc1ccccc1N(CC(=O)NCc1ccco1)C(=O)CCC(=O)Nc1ccccn1,-0.8,-9,-1,-4,·,2.2,-5.8
Cc1noc(-c2ccccc2OC(=O)c2ccccc2)n1,2.8,2,-2,·,-5%,-1.9,-4.0
CCS(=O)(=O)c1ccc(O)c(NC(=O)/C=C/c2ccc(Cl)cc2)c1,1.2,0,14,-15,20%,-1.4,-1.3
Cc1c[n+]([O-])ccc1Oc1ccc([N+](=O)[O-])cc1,0.4,-3,1,-16,·,0.9,1.2
CCOc1cccc2cc(C(=O)N3CCc4ccccc4C3)c(=O)oc12,3.1,-5,-25,0,-2%,4.9,0.4
CCCC(=O)N1CC2(CCC)CN(C(=O)CCC)CC(CCC)(C1)C2=O,2.8,6,1,-7,-2%,0.2,-9.0
Cc1ccc(S(=O)(=O)N(C)C[C@H]2Oc3ccc(NC(=O)C4CCCCC4)cc3C(=O)N([C@H](C)CO)C[C@H]2C)cc1,·,3,·,0,·,3.7,2.4
COc1ccc(C2=CN(Cc3ccccc3)CCC2=O)cc1,·,-5,·,54,·,2.2,0.7
Cn1c(=O)c2[nH]c(NCCCN3CCOCC3)nc2n(C)c1=O,-4.0,-6,?,·,8%,-1.2,·
N#CCN1CCC(c2cc(-c3ccco3)n[nH]2)CC1,1.4,·,-28,-24,3%,·,0.9
COc1ccccc1N(CC(=O)NCc1ccccc1)C(=O)CCC(=O)Nc1cc(C)ccn1,-1.7,-8,0,3,6%,0.5,3.2
Cc1cc(/C=C2/NC(=O)NC2=O)c(C)n1C,5.2,-1,6,-8,32%,-13,5.8
COc1ccc(NC(=O)Cn2c(=O)n(-c3ccccc3)c(=O)c3sccc32)c(OC)c1,3.9,-10,0,-8,7%,-0.3,-3.9
CCN(CC(=O)Nc1ccc2c(c1)OC(F)(F)O2)Cc1nc2ccccc2c(=O)[nH]1,0.7,-6,-5,·,2%,-1.1,-2.0
O=Cc1c(N2CCN(c3cccc(Cl)c3)CC2)nc2ccccn2c1=O,1.3,16,1,3,-2%,2.2,2.5
CC(Sc1nnc(-c2ccccc2F)n1C1CC1)C(=O)NCc1ccco1 (centres undefined),·,-3,·,-2,-2%,-2.1,-5.2
O=C(c1ccco1)N1CCn2cccc2C1c1ccccc1 (centres undefined),2.6,2,0,0,10%,-1.3,4.7
O=C(CN1CCN(Cc2ccccc2)CC1)Nc1ccc(-n2cnnn2)cc1,3.6,2,1,0,19%,0.5,0.4
O=C(CNCC1(N2CCOCC2)CCCCC1)Nc1ccc(Cl)cc1,4.6,0,-5,-1,0%,3.4,-1.8
CCc1ccc(CNC(=O)CCCn2c(=O)c3cccn3c3cccnc32)cc1,1.5,-4,1,1,·,1.8,-3.6
Cn1nc(-c2ccccc2)c(COC(=O)c2cccc(Cl)c2)c1S(=O)(=O)c1ccccc1,1.2,12,-5,-5,2%,-0.5,-2.3
CC(/C=C/c1ccccc1F)=N\NC(=O)C(C)C,1.8,-13,3,-2,-9%,1.4,0.7
CCOC(=O)c1nnn(-c2ccc([N+](=O)[O-])cc2[N+](=O)[O-])c1C,-0.3,1,27,-31,9%,-0.3,0.9

# (continued)
SMILES,RanGTP-Imp inh,B2AR ag,Calb FLC,ALR inh,Vif A3G,HNF4A DNA FP,LANA-H2B inh
CCOC(=O)CC1=C(C(=O)OCC)C(c2cccs2)C(C#N)=C(N)O1 (centres undefined),?,4,-7,7,6%,-1.2,6.1
Cc1onc(-c2ccccc2)c1C(=O)Nc1ccon1,-5.4,-7,0,-14,3%,4.0,5.0
O=C(COc1ccccc1F)Nc1ccccc1C(=O)NC1CC1,·,-8,·,·,·,6.2,-3.5
CC(C)c1ccc(CN(C(=O)C2COc3ccccc3O2)C2CCS(=O)(=O)C2)cc1 (centres undefined),-1.1,-4,38,-10,3%,4.8,-3.2
O=C(c1cccc(Cl)c1)N1CCN(c2ccc(N3CCOCC3)nn2)CC1,-0.4,-4,2,5,·,-1.6,-0.8
Cc1ccc(-c2cnc(NC(=O)c3cccc(Br)c3)s2)c(C)c1,-0.4,-6,-1,-2,3%,6.1,3.6
Cc1ccc(C)c(C(C)NC(=O)c2ccncc2)c1 (centres undefined),-3.9,0,-4,2,·,4.2,-0.1
O=C(O)c1nccnc1C(=O)Nc1ccc(Cl)cc1Cl,3.6,-1,9,-16,-11%,-0.3,8.0
COc1ccc(CN2CCCC(CO)(Cc3ccc(F)cc3)C2)cc1C (centres undefined),3.1,-2,-18,-1,·,0.4,-1.2
N/C(=N\N=C\c1cccs1)SC1CC(=O)N(c2ccc(Br)cc2)C1=O (centres undefined),-2.0,5,21,-2,0%,1.0,-5.3
Cc1n[nH]c(=S)n(/N=C/c2cccc([N+](=O)[O-])c2)c1=O,3.8,-2,-1,34,3%,-2.8,2.9
Cc1cc(C)cc(NC(=O)CSc2nc(N)c(NC(=O)c3cccs3)c(=O)[nH]2)c1,-2.2,-2,4,-6,15%,-3.0,1.8
CC1Cc2ccccc2N1C(=O)c1ccc(F)c(S(=O)(=O)N2CCOCC2)c1 (centres undefined),·,-5,·,·,0%,4.2,0.5
Cc1nn(C)c(Nc2ccc(Br)cc2)c1Br,3.4,1,-27,93*,-5%,-5.3,0.5
O=C(Nc1cccc(C(=O)O)c1)/C(=C\c1ccco1)NC(=O)c1ccccc1Cl,1.5,-8,9,2,10%,1.1,-3.2
COc1ccc(OC)c(NC(=O)CCc2c[nH]c3ccccc23)c1,-6.4,5,-5,1,·,0.6,-1.9
CCC(C(=O)Nc1ccc2c(c1)OCCO2)n1nnc2ccccc2c1=O (centres undefined),4.5,5,-8,3,·,6.7,4.0
